HIV Env fusion: blocks HIV Env-driven cell-cell fusion. HeLa-JRFL Env/CEM21 cell fusion, luciferase. inhibition, % at 12.3 µM. 1.1% of 360,000 active. AID 651610;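 active means mean replicate inhibition score of at least 50 and every replicate individually at or above 50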;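 further: 0% = plate neutral controls and 100% = maraviroc near 300 nM; one replicate is shown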
eIF4H FP inh: inhibitors of RNA binding by human eIF4H; Q15056; eIF4H fluorescence polarization binding assay; inhibition, % at 35 µM; 0.94% of 290,000 active;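 active means 50% or more with normal probe brightness, or confirmed in later tests; about a fifth of its hits are not listed in these tables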;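 further: calls also rest on retests at 20 µM and on dose response follow-up; 0% = protein and probe with vehicle and 100% = probe without protein; strong numbers were not always called active; many hits fall short of the cut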
MT1-MMP act inh: MT1-MMP (human) activation inhibition. 0.061% of 360,000 active. GFP/RFP ratio change, % at 20 µM. HT1080 RFP-PRO-GFP cells, GFP/RFP ratio fluorescence, overnight; percent of plate control window, DMSO zero. AID 651647;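 active means GFP/RFP ratio change of at least 30% with cell ATP level not reduced by more than half and red fluorescence within 50% of control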; further: strong numbers were not always called active
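system = RFP-PRO-GFP reporter HT1080 cells | dosing = 20 µM single dose, 1% DMSO | timing = overnight cell settling, then overnight compound exposure, 37 °C, 5% CO2 | read-out basis = GFP/RFP fluorescence ratio | controls = DMSO and RFP-L50D-GFP cell wells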
CSC inhib: cancer stem cell inhibition; cancer stem cell-like cells viability, luminescence; inhibition, % at 7.5 µM; 1.1% of 300,000 active;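 active means mean at 75% or more and at least half the replicates too; tested in HMLE shEcad cells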;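 further: 0% = median of negative and 100% = median of positive control wells; the first replicate is given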
Rce1 inhib: inhibitors of yeast Ras-converting enzyme | AID 2563 | calls only | Q03530 | 0.27% of 290,000 active | yeast membranes, quenched prenylated peptide cleavage fluorescence;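 active means fall in fluorescence gain of 50% or more versus controls, with final raw signal at or below 3038400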;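 further: plate controls were neutral control wells for no effect and wells lacking membranes for full effect; tested at 10 µM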
UUG fidelity: yeast start codon fidelity modulation; S. cerevisiae UUG-firefly luciferase reporter, luminescence/redox ratio; activity score, % at 18.7 µM; 0.13% of 350,000 active; AID 602363;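 active means replicate mean at a twofold rise or more, about +100% in these data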;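 further: firefly luciferase made from a UUG start codon reports start codon fidelity; reporter light over untreated wells divided by growth signal over untreated wells; some hits fall short of that in this replicate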
PABP polyA inh: blocks human PABP binding to poly(A) RNA. P11940. fluorescence polarization. inhibition, % at 35 µM. 1% of 290,000 active. AID 2014;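 active means 50% or more with normal probe brightness, or confirmed in later tests; about a fifth of its hits are not listed in these tables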;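 further: calls also rest on retests at 20 µM and on dose response follow-up; controls were probe without protein and protein plus probe with vehicle; some compounds called inactive have numbers as strong as hits; many hits fall short of the cut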
Target sequence (P11940 whole entry, looked up): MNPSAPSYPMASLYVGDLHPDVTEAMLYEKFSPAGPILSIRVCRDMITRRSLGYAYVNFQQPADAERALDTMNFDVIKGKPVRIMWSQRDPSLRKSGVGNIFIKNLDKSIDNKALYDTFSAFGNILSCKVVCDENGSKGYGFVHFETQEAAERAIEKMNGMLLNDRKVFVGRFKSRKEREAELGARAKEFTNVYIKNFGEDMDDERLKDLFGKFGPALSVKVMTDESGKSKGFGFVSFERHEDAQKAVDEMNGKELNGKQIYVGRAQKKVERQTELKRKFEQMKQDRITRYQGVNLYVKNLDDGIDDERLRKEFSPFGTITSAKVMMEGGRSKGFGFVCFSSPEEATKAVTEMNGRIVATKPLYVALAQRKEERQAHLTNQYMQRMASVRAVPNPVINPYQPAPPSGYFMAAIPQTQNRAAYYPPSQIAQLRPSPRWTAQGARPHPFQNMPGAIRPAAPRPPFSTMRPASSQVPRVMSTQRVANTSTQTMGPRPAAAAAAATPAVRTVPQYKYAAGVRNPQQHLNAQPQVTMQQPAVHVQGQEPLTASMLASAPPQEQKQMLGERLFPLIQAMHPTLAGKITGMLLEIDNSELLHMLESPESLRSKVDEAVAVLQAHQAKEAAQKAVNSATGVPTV
MT1-MMP act inh RFP: also measured in MT1-MMP act inh; calls as there; RFP signal change, %; measured here: RFP expression control read;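 0 = vehicle wells; hits needed this value within 50% of zero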
Active calls of the source: *; i = inactive; . = no result given; & = joins results of further samples; [ ] = remark or other dose.

SMILES	HIV Env fusion	eIF4H FP inh	MT1-MMP act inh	MT1-MMP act inh RFP	CSC inhib	Rce1 inhib	UUG fidelity	PABP polyA inh
COc1ccc(/C(O)=C2\C(=O)C(=O)N(c3cc(C)on3)C2c2ccc(OC)c(OC)c2)cc1OC (stereo not given)	.	-5	2	6	13	i	-6	1
COc1ccc(N2CCN(C(=O)C(=O)c3cn(CC(=O)N4CCCC4)c4ccccc34)CC2)cc1	2	.	1	-1	.	.	19	.
Nn1c(SCC(=O)Nc2ccc(F)cc2)nnc1-c1cccnc1	-3	-8	6	12	-13	i	6	-3
O=S(=O)(NCCc1ccccc1)c1cccc(S(=O)(=O)N2CCOCC2)c1	.	-12	-1	-3	1	i	-13	-1
O=C(Nc1ccc(C(F)(F)F)cc1)N1CCN(C(=O)c2ccco2)CC1	2	-8	2	0	-6	i	-5	14
O=S(=O)(/C=C/c1ccccc1)N1CCN(c2nc(-c3ccccc3)nc3ccccc23)CC1	29	4	-7	-12	6	i	.	-2
Cc1ccc(CN2C(=O)CCC2C(=O)N2CCN(c3ccccc3)CC2)cc1 (stereo not given)	1	-10	-3	-4	-10	i	.	-9
CCN(CC(=O)NCc1ccc(F)cc1)C(=O)CCNS(=O)(=O)c1cccc(C)c1	.	.	5	0	1	.	-12	.
COc1cccc(-c2cc(C(=O)NCCCN3CCOCC3)no2)c1	2	2	2	-1	-10	i	-12	4
C/C(CCc1ccc2c(c1)OCO2)=N\NC(=O)c1ccccc1Br	-10	4	4	5	-1	i	.	9
Cc1ccc(S(=O)(=O)C(C#N)=C2N(C)c3ccccc3N2C)cc1	1	16	1	1	7	i	-3	-10
Nc1ccc(C(=O)C(=O)c2ccc(N)cc2)cc1	5	-6	-3	2	-8	i	-24	-1

In the list so far, these have a halogen:
SMILES	HIV Env fusion	eIF4H FP inh	MT1-MMP act inh	MT1-MMP act inh RFP	CSC inhib	Rce1 inhib	UUG fidelity	PABP polyA inh
Nn1c(SCC(=O)Nc2ccc(F)cc2)nnc1-c1cccnc1	-3	-8	6	12	-13	i	6	-3
O=C(Nc1ccc(C(F)(F)F)cc1)N1CCN(C(=O)c2ccco2)CC1	2	-8	2	0	-6	i	-5	14
CCN(CC(=O)NCc1ccc(F)cc1)C(=O)CCNS(=O)(=O)c1cccc(C)c1	.	.	5	0	1	.	-12	.
C/C(CCc1ccc2c(c1)OCO2)=N\NC(=O)c1ccccc1Br	-10	4	4	5	-1	i	.	9

Additional compounds.
SMILES	HIV Env fusion	eIF4H FP inh	MT1-MMP act inh	MT1-MMP act inh RFP	CSC inhib	Rce1 inhib	UUG fidelity	PABP polyA inh
Cc1ccc(NC2Sc3ccccc3NC2=O)cc1 (stereo not given)	-16	6	-8	-1	-5	i	.	-7
CCn1c(SCC(=O)N2CCCCC2C)nnc1-c1ccco1 (stereo not given)	-6	-11	-1	-1	1	i	-3	2
NS(=O)(=O)c1ccc(CCNC(=O)CN2CCN(S(=O)(=O)c3ccccc3F)CC2)cc1	0	.	2	-4	-13	.	-10	.
COc1ccc(C)cc1S(=O)(=O)N1CCC2(CC1)OCCN2S(=O)(=O)c1ccccc1	2	.	5	-3	5	i	11	.
COc1ccc(OC)c(C(C[N+](=O)[O-])c2c(C)cc3ccccn23)c1 (stereo not given)	-2	-2	-5	0	23	i	-3	7
CCOC(=O)C1=C(C)NC(=O)C1CC(=O)Nc1ccccc1 (stereo not given)	.	-8	.	.	-9	i	.	-1
O=C(COc1ccccc1Cl)Nc1ccccc1C(=O)NC1CC1	12	.	-2	4	18	i	-5	.
N#CCCN(Cc1ccccc1)C(C(=O)NC1CCCCC1)c1ccnc2ccccc12 (stereo not given)	-15	.	3	-3	.	.	-14	.
O=[N+]([O-])c1cccc(/C=C/c2nc(C=Nc3ccc4ccccc4c3)c(O)o2)c1	-38	10	-36	0	-10	.	-18	3
CCS(=O)(=O)c1ncc(Cl)c(C(=O)Nc2ccccc2OC)n1	1	10	3	-12	55	i	-18	1
O=C(CN(Cc1ccccc1)C1=NCCS1)c1ccccc1	-1	-4	0	7	-3	i	7	-6
NC(=O)[C@@H]1CCCN1C(=O)c1cc(COc2ccc3c(c2)CCCC3)on1	-37	1	6	-1	-4	i	5	-10
CCOC(=O)c1c(-c2ccc(C)cc2)csc1NC(=O)CCN1CCOCC1	23	-5	-6	-5	10	i	-4	-1
CCOc1ccc(NC(=O)NC2CC(=O)N(c3ccc(OC)cc3)C2)cc1 (stereo not given)	-7	-15	0	2	-1	i	-7	3
Cc1ccc(C)c(OCCC(=O)OCC(=O)NCc2ccc(F)cc2)c1	30	-3	-1	2	-6	i	-6	0
NC(=O)C(Cc1ccccc1)NC(=O)C12CC3CC(CC(C3)C1)C2 (stereo not given)	21	2	2	-1	3	i	-14	0
O=C(CN1C(=O)NC2(CCc3ccccc32)C1=O)Nc1ccc(N2CCOCC2)cc1 (stereo not given)	-13	1	-2	-2	-6	i	-14	-6
Cc1ccccc1-c1cc(C(=O)Nc2sc(C(=O)OC(C)C)c(C)c2C#N)c2ccccc2n1	63*	-1	-25	-31	111*	i	-16	8
O=C(CSc1nc(-c2ccco2)cc(C(F)(F)F)n1)N1CCc2ccccc2C1	.	3	-8	-4	-10	i	-26	-3
O=C(COC(=O)CNS(=O)(=O)/C=C/c1ccccc1)NC1CCS(=O)(=O)C1 (stereo not given)	-29	4	-6	-2	-19	i	5	-5
Cc1ccc(OCC(=O)N2CCc3ccccc32)c([N+](=O)[O-])n1	9	-5	0	5	-2	i	-15	6
COc1ccc(NC(=O)NC2(C(=O)N3CCN(C)CC3)CCCCC2)cc1	-21	1	3	0	.	i	-11	4
C[C@H](CO)N1C[C@H](C)[C@@H](CN(C)S(=O)(=O)c2ccc(F)cc2)Oc2ccc(NC(=O)CCN3CCOCC3)cc2C1=O	-13[16.7 µM]	.	32*	5.4*	.	.	16&17	.
O=C(NC(=S)NC(CO)Cc1ccccc1)c1ccc(F)cc1 (stereo not given)	-36	2	-3	0	-15	i	-6	-3
CCCSc1nc(N2CCCC2)c2c(c1C#N)CC(C)(C)OC2	.	-14	-4	1	46	i	-12	2
CCN(CC)C(=O)N1CCN(S(=O)(=O)c2ccccc2)CC1	-63	-7	-2	3	-7	i	.	-1
CC(C)C[C@@H]1CN=C(N)N1C[C@@H]1CCCN1C[C@@H](C(C)C)N1C[C@@H](Cc2ccccc2)N(CCc2ccc(Cl)c(Cl)c2)C1=N	-15	.	3	6	.	.	8	.
C/C(=N\Nc1ccccn1)c1ccc(S(=O)(=O)NCc2ccco2)cc1	11	18	3	2	60	i	.	-7
Nc1nc(SCc2ccccc2[N+](=O)[O-])c2ncn(Cc3ccccc3)c2n1	14	.	0	-3	.	.	-19	.
CC(OC(=O)c1ccc2c(c1)OCO2)C(=O)NC1CCCCC1 (stereo not given)	5	.	-1	-5	.	.	-8	.
O=c1ccn([C@@H]2O[C@H](COS(=O)(=O)O)[C@@H](O)[C@H]2O)c(=O)[nH]1	-8	.	16	2	.	.	-2	.
Cc1cc(NC(=O)CSc2nnnn2Cc2ccccc2)no1	-45	-1	-1	-2	15	i	-13	-3
CCOc1ccc(-c2[nH]nc3c2C(c2ccc4c(c2)OCO4)C(C#N)=C(N)O3)cc1OC (stereo not given)	.	0	4	-3	3	i	-16	-1
O=C(NC(=O)C(F)(F)F)Nc1ccc(S(=O)(=O)Nc2nccs2)cc1	7	-7	2	6	-8	i	1	1
COc1ccc(-n2nc3c(N4CCC(C(=O)NCc5ccccc5C)CC4)nnc(C)c3c2C)cc1	.	-23	0	-1	-17	i	-6	-28
Cc1cc(C)nc(NC(=O)CSc2nc3cc(Cl)ccc3s2)n1	.	18	7	5	-7	i	-18	-5
O=C(CSc1nnc(-c2c[nH]c3ccccc23)o1)N1c2ccccc2CCc2ccccc21	.	-13	-12	-21	31	i	-8	-2
CCS(=O)(=O)C1=NSC2=NC(=O)/C(=C\c3ccc(OC(=O)c4ccco4)cc3)C(=N)N21	18	0	-8	3	-9	i	-8	8
COc1cc(C(=O)Nc2ccc(S(=O)(=O)Nc3onc(C)c3C)cc2)cc(OC)c1OC	.	0	7	-3	-4	i	4	-8
COc1cccc(-n2c(SCC(=O)N3CCOCC3)nnc2-c2c[nH]c3ccccc23)c1	10	-11	-1	-1	-2	i	-8	-1
O=CNNC(=O)c1cccc([N+](=O)[O-])c1	7	1	2	5	-12	i	.	0
CC(=O)Nc1ccc(-c2nnn(CC(=O)c3ccccc3)n2)cc1Cl	-62	-4	-3	-2	-4	i	11	-10
O=C(CCCN1C(=O)S/C(=C/C=C/c2ccccc2)C1=O)Nc1ccc(C(=O)O)cc1	-10	-8	-4	-3	5	i	-14	10
COC(=O)CC1(C(=O)OC)Nc2cc(Cl)c(Cl)cc2S(=O)(=O)N1O (stereo not given)	-21	.	0	2	.	.	-11	.
Fc1ccc(OCc2nc(-c3ccc(Br)o3)no2)c(F)c1	-43	-8	-1	2	7	i	-17	8
CC(C)Nc1nc(Nc2ccc(Cl)cc2F)c2sccc2n1	10	.	-10	-15	.	.	-14	.
S=C(Cc1ccc(-c2ccccc2)cc1)N1CCOCC1	10	.	1	-6	8	i	-23	.
Cc1ccccc1CNC(=O)Cn1ccc2cc(S(=O)(=O)N3CCCCCC3)ccc21	16	-1	4	-12	-11	i	2	-5
Cc1ccccc1N(C(=O)Cc1ccsc1)C(C(=O)NC1CCCCC1)c1ccc(F)cc1 (stereo not given)	.	-3	1	2	-1	i	-11	0
CN(C(=O)c1ccc(NC(=O)Cc2cccc([N+](=O)[O-])c2)cc1)C1CCCC1	14	.	3	-4	-14	.	-6	.
CN(C)c1ccc(NC(=O)Cn2cc3c(n2)CCCC3)cc1	-34	12	0	1	5	i	-17	4
Cc1csc(NC(=O)CSc2nc3[nH]ncc3c(=O)[nH]2)n1	16	13	1	4	-5	i	.	4
CCC(C)(C)NC(=O)C(c1ccccn1)N(C(=O)c1csnn1)c1ccccc1 (stereo not given)	-5	-7	1	3	10	i	.	-6
Cc1ccc(-n2nc3c(N4CCC(C(=O)NCc5cccc(F)c5)CC4)nnc(C)c3c2C)cc1	.	.	1	-7	0	i	-16	.
COCCn1cnc2c1c(=O)n(Cc1ccc(Br)cc1)c(=O)n2Cc1ccccc1	10	-1	0	-2	3	.	-5	12
O=C(NNC(=O)c1cc2cc(OC(F)(F)F)ccc2[nH]1)c1ccc(Cl)cc1	5	-6	3	-1	4	i	-9	3
CCC(=O)N1CCc2cc(S(=O)(=O)NC(C(=O)NCc3ccc(F)cc3)C(C)C)ccc21 (stereo not given)	28	-4	-1	0	-9	i	-4	-4
O=C(C[n+]1ccc(Cc2ccccc2)cc1)Nc1ccc([N+](=O)[O-])cc1Cl	-9	-8	1	0	-15	i	.	-11
Nc1ccc(NC(=O)NC2CCCCC2)cc1	-6	-1	3	-10	-13	i	-4	-9
COc1ccccc1N1CCN(C2CCN(C(=O)c3cc(OC)c(OC)c(OC)c3)CC2)CC1	-18	-6	1	0	-17	i	10	19

Other records follow.
SMILES	HIV Env fusion	eIF4H FP inh	MT1-MMP act inh	MT1-MMP act inh RFP	CSC inhib	Rce1 inhib	UUG fidelity	PABP polyA inh
COc1ccc(S(=O)(=O)NNC(=O)c2cc3cc4ccccc4nc3s2)cc1	7	-1	-3	-9	-14	i	-21	-5
Cc1cccc(OCC(=O)Nc2c3c(nn2C(C)(C)C)CS(=O)(=O)C3)c1	8	-5	0	1	-4	i	-11	3
N#Cc1nc(COc2ccccc2)oc1N1CCOCC1	-124	-11	-6	3	-5	i	3	-7
OC[C@@H]1CN(Cc2ccc(F)cc2)C[C@H](n2cnc3c(N4CCOCC4)ncnc32)O1	-2	.	3	4	.	.	0	.
CCOC(=O)c1c(C)[nH]c(C)c1C(=O)CSc1nc2ccccc2n1CC	16	2	1	0	-11	i	.	1
COc1ccc(CCNC(=O)CSc2nc(C)nc3c2c(=O)n(C)c(=O)n3C)cc1OC	-12	-6	4	3	-5	i	-20	-17
CN(CC(=O)Nc1ccc(Cl)c(C(F)(F)F)c1)C(=O)/C=C/c1cccs1	.	.	1	-1	22	.	-16	.

Source: PubChem BioAssay (several laboratories)
